High-throughput results as filed in PubChem.
VACV mCherry inh: inhibitors of vaccinia virus infection (mCherry reporter signal); Vaccinia virus mCherry reporter infection, fluorescence; about a quarter of the inactives have no number; actives 0.63% (n = 310,000); Potency, µM (titrated, usually from 36.5 µM), inactives show at the highest dose activity change, negative = inhibition, most hits filed as inhibitors; active = well fitted inhibition curve with a large enough effect; inconclusive = small, poorly fitted or top-dose-only effect; inactive = no such curve, though single readings can be large or run the other way; tested in A549 cells; further: nearly all actives have a fitted effect of over 35% in size; inactives centre near -10
Vaccinia Venus: inhibitors of vaccinia virus (Venus reporter). Vaccinia virus Venus reporter expression, fluorescence. Potency, µM (doses to about 36.5 µM), inactives show at the highest dose activity change, negative = inhibition, actives largely listed as inhibitors. actives 0.46% (n = 330,000). AID 720580; active means well fitted inhibition curve with a large enough effect; inconclusive means small, poorly fitted or top-dose-only effect; inactive means no such curve, though single readings can be large or run the other way; tested in A549 cells; further: nearly all actives have a fitted effect of over 30% in size; inactives centre near -10
Numbers without * were called inactive; i = inactive; u = inconclusive; x = no result given; [ ] = dose if it differs, or a comment. On the % scale 0 is the no-effect control and ±100 the full control effect; potency means the concentration at half of the fitted maximal effect.

A first look, 5 compounds:
SMILES	VACV mCherry inh	Vaccinia Venus
COc1cccc(C(CC(=O)NCC2CCCO2)NS(=O)(=O)c2ccc(C)cc2)c1OC (stereo not drawn)	-16.9%	-17.4%
O=C(Cc1cccs1)Nc1ccc2c(c1)C(=O)OC2	i	-6.4%
O=C(NNC(=O)C1CCN(S(=O)(=O)c2cccc(C(F)(F)F)c2)CC1)C1CC1	i	-11.4%
Cc1ccc(CS(=O)(=O)CCC(=O)NCCC2=CCCCC2)cc1	-1.9%	-16.2%
CCCCCOc1cccc(C2C(C(=O)c3cccs3)=C(O)C(=O)N2CCN2CCOCC2)c1 (stereo not drawn)	i	-2.9%

This part in full (from the top)
SMILES	VACV mCherry inh	Vaccinia Venus
COc1cccc(C(CC(=O)NCC2CCCO2)NS(=O)(=O)c2ccc(C)cc2)c1OC (stereo not drawn)	-16.9%	-17.4%
O=C(Cc1cccs1)Nc1ccc2c(c1)C(=O)OC2	i	-6.4%
O=C(NNC(=O)C1CCN(S(=O)(=O)c2cccc(C(F)(F)F)c2)CC1)C1CC1	i	-11.4%
Cc1ccc(CS(=O)(=O)CCC(=O)NCCC2=CCCCC2)cc1	-1.9%	-16.2%
CCCCCOc1cccc(C2C(C(=O)c3cccs3)=C(O)C(=O)N2CCN2CCOCC2)c1 (stereo not drawn)	i	-2.9%
COc1ccc(CCNC(=O)CO/N=C/c2cc3c(cc2Br)OCO3)cc1OC	-10.2%	2.7%
COc1ccc2[nH]c3c(c2c1)CCN1C(=O)C(CC(=O)NCCCN(C)C)C[C@H](C(=O)N2CCOCC2)[C@@]31CCC1CCCC1 (stereo partly drawn)	-16.1%	-13.8%
NCCOc1ccc(C2CCCCC2)cc1	-18.7%	0.6%
CC1CCCCC1NC(=O)CN1C(=O)c2cccc(N)c2C1=O (stereo not drawn)	6.2%	4.1%
COc1cc(NC(=O)CCc2c(C)nn(-c3ccc(N4CCCCC4)nn3)c2C)cc(OC)c1OC	-5.7%	-8.8%
CCN(CC)CCOC(=O)c1ccc(Cl)cc1Cl	i	-7.6%
O=C(O)CCCNS(=O)(=O)/C=C/c1ccccc1	i	1.4%

Single records, as listed above. Values in the order: VACV mCherry inh	Vaccinia Venus
Profile of COc1ccc(CCNC(=O)CO/N=C/c2cc3c(cc2Br)OCO3)cc1OC : -10.2%	2.7%
Profile of COc1ccc2[nH]c3c(c2c1)CCN1C(=O)C(CC(=O)NCCCN(C)C)C[C@H](C(=O)N2CCOCC2)[C@@]31CCC1CCCC1 (stereo partly drawn) : -16.1%	-13.8%
Profile of COc1cccc(C(CC(=O)NCC2CCCO2)NS(=O)(=O)c2ccc(C)cc2)c1OC (stereo not drawn) : -16.9%	-17.4%
Profile of O=C(NNC(=O)C1CCN(S(=O)(=O)c2cccc(C(F)(F)F)c2)CC1)C1CC1 : i	-11.4%

More records follow.
SMILES	VACV mCherry inh	Vaccinia Venus
Cc1ccc(-c2csc(NC(=O)CSc3nc4ccccc4[nH]3)n2)cc1	-15.0%	u
O=C(O)Cn1c(Cc2ccccc2)nc2ccccc21	-2.9%	-8.5%
CCOC(=O)c1c(-c2ccccc2)c(C(C)=O)c(=O)n(C)c1C	1.1%	-2.2%
Cn1ccnc1SCC(=O)c1ccc(OC(F)F)cc1	-25.4%	-4.5%
Cc1ccc(-c2csc(/C=C3/SC(C)C(=O)N3CC(=O)Nc3ccccc3F)n2)cc1 (stereo not drawn)	i	-1.3%
COc1cc2c(cc1OC)C(c1cc3ccc(C)cc3[nH]c1=O)N(C(=O)c1ccco1)CC2 (stereo not drawn)	i	1.0%
COc1ccc(NS(=O)(=O)c2ccc3c(c2)oc(=O)n3C)c(OC)c1	-8.3%	-2.6%
COC(=O)c1cc(C)sc1NC(=O)CCc1ccccc1	-12.9%	-8.5%
CCOC(=O)CCNC(=O)Nc1cc2nc(C)n(Cc3cccc(Cl)c3)c2nc1C	i	-11.9%
O=C(CN1C(=O)NC(c2ccccc2)(c2ccccc2)C1=O)NCCc1ccc(F)cc1	-5.0%	0.6%
COc1ccc(N/C=C/C(=O)c2ccc(OC)c(OC)c2)cc1	i[7.34 µM]	-4.4%[7.34 µM]
CN(CC(=O)Nc1ccccc1C(F)(F)F)C(=O)CCc1nc2ccccc2c(=O)[nH]1	i	-14.5%
CCC(C)[C@H]1CNC(=O)C(=O)N1CCCCC1CCCCC1 (stereo partly drawn)	-8.0%	-10.4%
CCc1ccc(OCC(=O)N(C)C2CCS(=O)(=O)C2)cc1 (stereo not drawn)	-15.7%	-7.0%
CC(C)[C@H](NC(=O)c1ccco1)C(=O)OCC(=O)c1ccc2c(c1)NC(=O)CO2	-9.0%	19.2%
CCCCOc1nc2ccccc2c(=O)n1-c1ccccc1	i	-13.6%
CCN(CCn1cccn1)C(=O)CCc1nnc(C2(c3ccc(Cl)cc3)CCC2)o1	-15.7%	6.4%
CCc1cccc(C)c1NC(=O)c1ccc2c(c1)CCN2S(C)(=O)=O	-16.9%	-15.7%
Cc1cc(C(F)(F)F)n(-c2nc(C(=O)NNS(=O)(=O)c3ccccc3)cs2)n1	i	-9.6%
O=C(O)C1Nc2c(O)cccc2C2C=CCC12 (stereo not drawn)	-16.3%	-8.4%
Cc1c(C(=O)NCc2ccco2)sc2nc(-c3ccccc3)cn12	-12.7%	u
CCN(CC)C(=O)C1CCN(S(=O)(=O)c2ccc3c(c2)CCCN3C(C)=O)CC1	-16.2%	-10.9%
CCOC(=O)C(Cc1ccc(OC)c([N+](=O)[O-])c1)NC(=O)CCC(=O)Nc1ccc(OC)cc1 (stereo not drawn)	i	-8.8%
CCC(=O)Nc1ccc(C)cc1-c1nc2ccccc2n(C(C)C(=O)Nc2ccccc2CC)c1=O (stereo not drawn)	-12.2%	-4.8%
O=C(CN1CCOCC1)N/N=C/c1ccco1	9.4%	0.5%
COc1ccc2c(c1)C(C)=CC(C)(C)N2S(=O)(=O)c1ccc(Br)cc1	-4.6%	-13.2%
O=C(C#Cc1ccccc1)Nc1ccc(F)cc1	u	u
Cc1ccc(-c2cc(C(=O)NCC3CCCO3)no2)cc1 (stereo not drawn)	-3.4%	-17.6%
Cc1cc(C)nc(SC2=CS(=O)(=O)c3ccccc32)n1	12.6µM*	2µM*
COC(=O)C1=C(C)NC2=C(C(=O)CCC2)C1c1coc2ccccc2c1=O (stereo not drawn)	x	-1.3%
CCOc1ccc2nc(/N=C/c3c(C)[nH]n(-c4ccc(C)cc4)c3=O)sc2c1	-0.7%	-12.8%
Cn1c(=O)cc(SCC(=O)N2CCN(c3ccccc3F)CC2)c2cc(Cl)ccc21	-5.9%	-0.1%
COCCNC(=O)/C(C#N)=C/c1ccc(O)c([N+](=O)[O-])c1	i	-3.8%
CCOc1ccccc1NC(=O)CSc1ccc(-c2ccco2)nn1	-24.3%	-15.8%
CN1CCN(C(=O)/C=C/c2cn(-c3ccccc3)nc2-c2ccc3c(c2)OCCO3)CC1	u	u
COc1ccc(C)cc1S(=O)(=O)n1c([N+](=O)[O-])cnc1C	-14.9%	8.1%
O=C(/C=C(\c1ccccc1)n1cncn1)c1ccccc1	-40.5%	u
Cc1cc(C)c(NC(=O)CSc2cccc[n+]2[O-])c(C)c1	i	-12.1%
Cc1ccc(-c2nc3cc(C(C)C)ccc3o2)cc1NC(=O)c1cc([N+](=O)[O-])ccc1N1CCOCC1	-11.3%	-10.8%
CCOc1cc(C(=S)N2CCOCC2)ccc1OS(=O)(=O)c1ccc(NC(C)=O)cc1	-12.5%	-12.2%
Cc1cc(C(=O)O)c(C)n1-c1ccccc1	-12.2%	-13.0%
CCN(CC)C(=O)CN(C#N)c1nc(OC)nc(N(C)C)n1	-11.2%	-8.8%
O=C(CC(=O)c1ccccc1)Nc1ccccc1C(F)(F)F	-8.9%	-6.7%
CN(C)c1ccc(S(=O)(=O)NCC(=O)OCC(=O)Nc2cc(Cl)cc(Cl)c2)cc1[N+](=O)[O-]	-23.1%	-6.3%
Cc1ccc(CN2C(=O)c3ccccc3CC2(C)C(=O)NC2CCCCC2)cc1 (stereo not drawn)	-5.3%	-9.4%
O=C(CSc1nnc(-c2cccnc2)o1)Nc1cccc(Cl)c1	-7.4%	-3.7%
O=C(N/N=C/c1coc2ccc(Cl)cc2c1=O)c1cc(O)cc(O)c1	-20.8%	-8.7%
COCCNC(=O)C(OC(=O)c1nsc(Cl)c1Cl)C(C)C (stereo not drawn)	i	4.8%
CCCCCC(O)CCCC(=O)O (stereo not drawn)	-11.1%	-17.6%
O=S(=O)(c1ccccc1)c1nc(-c2ccccc2Cl)oc1NCCCN1CCOCC1	-12.9%	-28.7%
N#C/C(=C/c1ccc(-c2ccccc2[N+](=O)[O-])o1)C(=O)NCCN1CCCCC1	u	9.8%
CCc1ccccc1NC(=O)CSc1nc(-c2ccccc2OC)nc2c1Cc1c(CO)cnc(C)c1O2	-10.2%	-12.5%
CCC(C)CCN1C(N(C)C)=NC[C@@H]1Cc1ccccc1 (stereo partly drawn)	-8.5%	-23.1%
Cc1ccc(CNc2nc3c([nH]2)c(=O)n(C)c(=O)n3C)cc1	x	-4.8%
CC(=O)n1cc([C@@H]2C=C(C(=O)N3CCN(Cc4ccc5c(c4)OCO5)CC3)O[C@H](OCCCCO)C2)c2ccccc21	-14.5%	-21.4%
O=C(CSc1nc(-c2ccccc2)nc2c1CCCC2)N1CCOCC1	x	-10.0%
O=C(Nc1ccc(S(=O)(=O)N2CCOCC2)cc1)C1CC(=O)N(c2ccc(F)cc2)C1 (stereo not drawn)	-5.5%	-11.8%
CC(=O)c1ccc(OCCCC(=O)Nc2ccc(C)c(S(=O)(=O)N3CCOCC3)c2)cc1	-8.8%	-18.5%
Cc1ccc(C(=O)N/N=C\c2cccs2)cn1	-19.3%	-1.3%
O=C(Nc1ccc2nc3n(c(=O)c2c1)CCCCC3)c1ccccc1Cl	i	u

Taken from the results shown, two compounds:
SMILES	VACV mCherry inh	Vaccinia Venus
Cc1ccc(C(=O)N/N=C\c2cccs2)cn1	-19.3%	-1.3%
O=C(Nc1ccc2nc3n(c(=O)c2c1)CCCCC3)c1ccccc1Cl	i	u

Additional results follow:
SMILES	VACV mCherry inh	Vaccinia Venus
CC(=O)Nc1ccc(C(=O)OCC(=O)N2CCCC2=O)cc1	-8.3%	-5.5%
COc1ccc(C(C)=O)cc1COC(=O)c1cc(C)oc1C	i	0.0%
CCOCCCNC(=O)CN1C(=O)COc2ccc(S(=O)(=O)N3CCOCC3)cc21	-7.8%	-2.0%
CC(=O)NC(C)(c1ccccc1)c1nc(/C=C/c2ccccc2)cs1 (stereo not drawn)	i	-9.0%
COc1ccc(CNC2CCCc3ccccc32)cc1OC (stereo not drawn)	-19.8%	-15.6%
COc1ccc(OCCNC(=O)C(c2ccccc2)c2ccccc2)cc1	x	-20.6%
COc1ccc(N2CCN(CC(=O)Nc3nc(C)cs3)CC2)cc1	-10.1%	-8.6%
CCN1CCc2c(OCc3ccc(C)cc3)cccc2C1=O	i	-21.4%
CCN(C(=O)CSc1nc2ccccc2n1CC(=O)Nc1cccc(C#N)c1)c1ccccc1	-14.9%	1.7%
O=C(Nc1ccc(N2CCCC2)c(Cl)c1)c1cccnc1	x	-7.0%
CCOC(=O)c1c(C)[nH]c(CCC(=O)Nc2c(C)cccc2CC)c1C	-6.6%	-11.2%
COc1ccc(N2CCN(C(=O)CCN3C(=O)C4C5C=CC(C5)C4C3=O)CC2)cc1 (stereo not drawn)	i	-3.5%
CCC(=O)Nc1c(-c2ccc(C)cc2)c(=O)c2ccccc2n1C	-29.0%	-3.4%
COc1ccc(C)cc1-n1nnnc1SCC(=O)NC(=O)NCc1ccco1	-17.2%	-12.9%
COc1ccc(CNC(=O)c2cnn(-c3ccc(F)cc3)c2-n2cccc2)cc1	-11.6%	-6.1%
Cc1ccc2c(c1)cc(C(=O)NCc1ccc(F)cc1)n2C	6.3%	5.3%
CCOC(=O)N1CCN(c2c(NCCCOC(C)C)c(=O)c2=O)CC1	7.0%	0.1%
COc1cccc(OC)c1OCCNCCO	-14.5%	-15.7%
CC1C(=O)N(Cc2cn(CCC3OCCO3)nn2)CCS(=O)(=O)N1Cc1ccc(-c2ccncc2)cc1 (stereo not drawn)	-5.3%	-4.4%
CCCN1CCC(NC(=S)Nc2ccc(S(N)(=O)=O)cc2)CC1	-4.6%	0.4%
COc1ccc(N2C(=O)C3[C@@H](C2=O)C2(Cl)C(Cl)=C(Cl)C3(Cl)C2(OC)OC)cc1 (stereo partly drawn)	-12.0%	-16.2%
OC1(Cc2ccccc2)CCNCC1	-2.8%	-12.5%
Cc1ccc(Cc2cnc(NC(=O)/C(C#N)=C/c3ccc(-c4ccccc4[N+](=O)[O-])o3)s2)cc1	-23.9%	-17.5%
Cc1ccc(NC(=O)COC(=O)C2CC2)cc1Cl	i	-5.5%
Cc1ccc(C)c(NC(=O)C2CC(O)CN2C(=O)OCc2ccccc2)c1 (stereo not drawn)	x	u
COc1ccc(NC(=O)Cc2csc(COc3cccc(C)c3)n2)cc1OC	-12.0%	-28.1%
CCCCN1CC(COCc2ccccc2)Oc2cc(Br)ccc2S1(=O)=O (stereo not drawn)	-1.2%	-5.5%
CC1CCN(C(=O)Cn2cc(S(=O)(=O)CC(=O)N3CCOCC3)c3ccccc32)CC1	i	-1.6%
Cc1ccc(C)c(-c2cc(C(=O)NN3CCOCC3)c3ccccc3n2)c1	-5.1%	2.7%
COC(=O)c1ccc2c(c1)C(=O)/C(=C/c1ccc(C)cc1)O2	-15.5%	-12.6%
CN1CCc2c(sc(NC(=O)CSc3ccc(F)cc3)c2-c2nc3ccccc3s2)C1	-7.6%[7.34 µM]	-14.5%[7.34 µM]
COc1cc([N+](=O)[O-])cc(/C=N/NC(=O)c2ccc(C)nc2)c1O	-12.5%	0.0%
COc1cc(OC)nc(Oc2ccccc2C(=O)Oc2cccc(C)c2)n1	-5.2%	-9.4%

An unsorted share of the library; overall some 0.88% were active at least once.
